High-throughput results from PubChem.
Mtb H37Rv: Confirmatory growth inhibition assay against Mycobacterium tuberculosis H37Rv, potency (AID 1949); most inactive calls were filed without a number and no value below 0 was filed; one-dose inhibition, % at 10 µg/mL; IC50 in µg/mL for titrated hits; actives 1.6% (n = 100,000);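 active means confirmed in a dose series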;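 further: bacteria grown 7 days with compound before Alamar blue readout; 0% = untreated bacteria and 100% = reference antibiotic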
* = called active by the depositor; i = inactive.

SMILES	Mtb H37Rv
COc1ccc(C(=O)O)cc1NC(=S)NC(=O)c1ccccc1[N+](=O)[O-]	i
CCOC(=O)C1CCN(C(=O)CN(c2cccc(Cl)c2)S(=O)(=O)c2ccccc2)CC1	i
CCC(=O)Nc1cc2[nH]c(=O)cc(C)c2cc1C	i
COC(=O)c1nn(-c2ccc(-c3ccccc3)cc2)cc1O	i
Nc1nc(-c2ccco2)nn1C(=O)c1ccc(Cl)cc1Cl	1%
CC(NC(=O)C(c1ccccc1)c1ccccc1)C(=O)N1CCOCC1 (centres undefined)	i
O=C(COc1ccc([N+](=O)[O-])cc1)Nc1ccc2oc(-c3ccccc3Br)nc2c1	3%
O=C(Cc1cccs1)Nc1nnc(Cc2ccc(F)cc2)s1	3%
COc1ccc(N2CCN(C(=O)c3cc4n(n3)C(C(F)(F)F)CC(c3ccco3)N4)CC2)cc1 (centres undefined)	i
Cc1cc(C)nc(N(C#N)CC(=O)c2ccccc2)n1	i
COc1ccc(OCCCn2cnc3ccccc32)cc1	i
C=CCn1c(-c2cccs2)n[nH]c1=S	i
Cc1cccn2cc(-c3cccc(NS(=O)(=O)c4ccc([N+](=O)[O-])cc4)c3)nc12	3%
Cc1ccccc1CN(c1ccc(C(=O)Nc2cc(C(F)(F)F)ccc2Cl)cc1)S(C)(=O)=O	7%
O=C(NCCSc1ccc(Cl)cc1)c1ccccc1I	i
COc1ccc(F)cc1S(=O)(=O)N1CCN(c2cccc(Cl)c2C)CC1	i
CCOc1ccc(C(=O)c2oc3ccccc3c2NC(=O)c2ccccc2Cl)cc1	i
Cc1cccc(C(=O)NCc2nnc(SCC(=O)Nc3ccccc3Cl)n2C)c1	i
COc1ccc(C)cc1S(=O)(=O)NCc1ccccc1	i
O=C(CN1C(=O)c2ccccc2C1=O)Nc1ccccc1F	i
Cc1cc(Br)ccc1OCC(=O)NCc1ccncc1	i
COc1ccc([N+](=O)[O-])cc1NC(=O)c1cc(-c2cccs2)nc2ccccc12	i
CC(C)CC1c2c(-c3ccccc3)n[nH]c2-c2onc(N)c21 (centres undefined)	i
NC(Cc1c[nH]c2ccc(OCc3ccccc3)cc12)C(=O)O (centres undefined)	i
O=C(Nc1ccc(F)cc1)N1CCN(c2ccccn2)CC1	i

Two entries from above, field by field.
O=C(CN1C(=O)c2ccccc2C1=O)Nc1ccccc1F
  Mtb H37Rv: i

Cc1cc(Br)ccc1OCC(=O)NCc1ccncc1
  Mtb H37Rv: i

More compounds follow.
SMILES	Mtb H37Rv
COC(=O)c1c(-c2ccccc2)csc1NC(=O)C1CC=CCC1C(=O)O (centres undefined)	i
O=C(NCc1ccccn1)c1cc(-c2ccc(Cl)cc2Cl)nc2ccccc12	i
Cc1ccc(C(=S)N2CCN(c3ccc(F)cc3)CC2)cc1	i
CCOc1ccc(-c2n[nH]c(C(=O)N/N=C/c3cc(OC)c(OC)cc3OC)c2C)cc1	4%
O=C(Oc1ccc([N+](=O)[O-])cc1)c1ccc(-c2nnc(-c3ccccc3)o2)cc1	10%
COc1cc2ccccc2cc1C(=O)Nc1ccc(N2CCN(Cc3ccccc3)CC2)cc1	i
CCN(CC)c1ccc(NC(=O)c2cccc(C)c2)c(C)c1	i
CCOC(=O)c1c(-c2ccc(Br)cc2)csc1NC(=O)c1ccccc1OC(C)=O	2%
O=C(c1ccc(F)cc1)N1CCN(Cc2ccccc2Br)CC1	i
O=C(CC1c2ccccc2Oc2ccccc21)NCC1CCCO1 (centres undefined)	i
COc1ccc(C)cc1NC(=O)c1ccccc1N(C)S(=O)(=O)c1ccccc1	i
CS(=O)(=O)N(CC(=O)NC1CC1)c1cccc(C(F)(F)F)c1	i
O=C(CC1(O)C(=O)Nc2ccccc21)c1ccc2c(c1)OCCO2 (centres undefined)	3%
CC(=O)Nc1nc2ccc(S(=O)(=O)NC(C)=O)cc2s1	i
O=C(COc1cccc(Cl)c1)Nc1ncc(Cc2ccc(Cl)cc2)s1	i
O=C(CN1C2=NCCN2c2ccccc21)c1ccc(O)cc1	13%
Cc1ccc(NS(=O)(=O)c2cc(C(=O)NCc3cccnc3)ccc2Cl)cc1C	i
Cc1cc(Cl)c(OCCCNC(C)C)c(Br)c1	i
CC(Oc1ccc(Br)cc1)C(=O)N1CCN(Cc2ccccc2)CC1 (centres undefined)	i
C=CCn1c(COc2ccccc2)nnc1SCC(=O)Nc1cc(C)ccc1OC	i
CCN(CC)c1ccc(CNn2cnnc2)cc1	i
Cc1nnc(SCC(=O)N2CCc3ccccc3C2)s1	1%
N#Cc1ccccc1COc1c(Cl)cc(C=O)cc1Cl	i
O=C(Oc1ccnc2cc(Cl)ccc12)N1CCOCC1	i
CCOc1cc(C(=O)Nc2c(CC)cccc2CC)cc(OCC)c1OCC	i
Continued.
SMILES	Mtb H37Rv
COc1cc(OC)c(C(=O)Nc2ccccc2Br)cc1OC	i
COC(=O)c1ccc(NC(=O)c2cnccn2)cc1	i
Cc1ccccc1/C(N)=N/OC(=O)N1c2ccccc2Sc2ccccc21	i
COc1ccc(C2C(C(=O)c3cc4cccc(OC)c4o3)=C(O)C(=O)N2CCCn2ccnc2)cc1 (centres undefined)	i
CCOc1c(Cl)cc(C(=O)NCCN2CCCCC2)cc1Cl	2%
O=C(Nc1ccc(C(=O)N2CCOCC2)cc1)c1cnn2c(C(F)F)cc(-c3ccccc3)nc12	0%
CCN=C(NS(=O)(=O)c1ccc(Br)cc1)c1ccc(Cl)cc1	1%
CCOC(=O)c1ccc(NS(=O)(=O)c2ccc(F)cc2)cc1	i
Cc1c(NC(=O)Cc2ccccc2)cccc1C(=O)NN1C(=O)c2ccccc2C1=O	i
O=C(Nc1ccc(Cl)cc1)C(=S)NC1CCCCC1	7%
CCOc1ccc(C(=O)NNC(=O)c2ccccc2)cc1Cl	i
O=C(CSc1nnc(-c2ccc([N+](=O)[O-])cc2)n1-c1ccccc1)c1ccc(Br)cc1	i
N#C/C(=C/c1c[nH]c2ccccc12)c1ccc(C#N)cc1	i
Cc1cc(C)c(NC(=O)CN(c2ccc(Br)cc2)S(=O)(=O)c2ccccc2)c(C)c1	i
CSC1=NC(C)(C)Cc2cc3c(cc21)OCCO3	40%
NC(=O)CSc1nnc(COc2ccccc2)n1Cc1ccco1	i
CNC(=O)C(=O)Nc1c(F)cc(F)cc1Br	i
O=C(Nc1cccc(N2CCCC2)c1)c1ccc([N+](=O)[O-])cc1	i
CCOC(=O)c1ccc(N2C(=O)CC(N3CCC(C#N)(c4ccccc4)CC3)C2=O)cc1 (centres undefined)	i
Cc1ccc(OCC(=O)O/N=C(\N)c2cccnc2)c(Br)c1	i
O=C(c1ccccc1)c1cc2ccc(O)cc2oc1=O	i
O=C(Nc1ccc(Cl)cc1C(F)(F)F)c1ccc(F)cc1	i
O=C(CSc1nc2ccc([N+](=O)[O-])cc2s1)c1ccc2ccccc2c1	2%
Cc1cc(C)c(Cn2c(C(O)c3ccccc3)nc3ccccc32)c(C)c1 (centres undefined)	i
C#CCN1C(=O)C(O)(CC(=O)c2ccc(OC)cc2)c2cc(Br)ccc21 (centres undefined)	i

Given in CSV form: entries from further up
canonical_smiles,Mtb H37Rv
CCOc1c(Cl)cc(C(=O)NCCN2CCCCC2)cc1Cl,2%
O=C(Nc1ccc(C(=O)N2CCOCC2)cc1)c1cnn2c(C(F)F)cc(-c3ccccc3)nc12,0%
CCN=C(NS(=O)(=O)c1ccc(Br)cc1)c1ccc(Cl)cc1,1%
CCOC(=O)c1ccc(NS(=O)(=O)c2ccc(F)cc2)cc1,i
Cc1c(NC(=O)Cc2ccccc2)cccc1C(=O)NN1C(=O)c2ccccc2C1=O,i
O=C(Nc1ccc(Cl)cc1)C(=S)NC1CCCCC1,7%
CCOc1ccc(C(=O)NNC(=O)c2ccccc2)cc1Cl,i
O=C(CSc1nnc(-c2ccc([N+](=O)[O-])cc2)n1-c1ccccc1)c1ccc(Br)cc1,i
N#C/C(=C/c1c[nH]c2ccccc12)c1ccc(C#N)cc1,i
Cc1cc(C)c(NC(=O)CN(c2ccc(Br)cc2)S(=O)(=O)c2ccccc2)c(C)c1,i
CSC1=NC(C)(C)Cc2cc3c(cc21)OCCO3,40%
NC(=O)CSc1nnc(COc2ccccc2)n1Cc1ccco1,i
CNC(=O)C(=O)Nc1c(F)cc(F)cc1Br,i
O=C(Nc1cccc(N2CCCC2)c1)c1ccc([N+](=O)[O-])cc1,i
CCOC(=O)c1ccc(N2C(=O)CC(N3CCC(C#N)(c4ccccc4)CC3)C2=O)cc1 (centres undefined),i
Cc1ccc(OCC(=O)O/N=C(\N)c2cccnc2)c(Br)c1,i
O=C(c1ccccc1)c1cc2ccc(O)cc2oc1=O,i

(further entries)
SMILES	Mtb H37Rv
COc1ccc(CCNC(=O)CSc2nc(-c3cccs3)cc(C(F)(F)F)c2C#N)cc1OC	i
O=C(NCc1cccs1)c1cc(Br)cs1	12%
CCn1c(SC)nnc1-c1sc2cc(Cl)ccc2c1Cl	i
C=CCn1c(CNC(=O)c2ccc(OC)cc2)nnc1SCC(=O)Nc1cc(Cl)ccc1OC	i
COc1ccccc1NS(=O)(=O)c1ccc(O)c(C(N)=O)c1	i
O=C(COc1c(-c2ccccc2)oc2ccccc2c1=O)NCc1ccco1	3%
COc1cc(C2CC(=O)c3cnc(NC(=O)c4ccccc4)nc3C2)cc(OC)c1OC (centres undefined)	i
CSc1cccc(NC(=O)c2ccc(C)c([N+](=O)[O-])c2)c1	i
COc1cccc(-c2nnc(SCC(=O)NCC3CCCO3)n2-c2ccccc2)c1 (centres undefined)	i
COc1ccc(C(=O)Nc2ccccc2C(N)=O)cc1OC	i
Cc1cc(C)c(NC(=O)CN(c2cc(Cl)cc(Cl)c2)S(C)(=O)=O)c(C)c1	2%
ClC1(Cl)CC1Cn1cnc2ccccc21 (centres undefined)	i
COc1cc(NC(=O)c2ccc(OCc3ccccc3)cc2)ccc1NC(=O)C(C)C	i
C#CCN1C(=O)C(O)(CC(=O)c2ccccn2)c2ccccc21 (centres undefined)	i
Cc1ccccc1NC(=O)CSc1nc2cc3ccccc3cc2[nH]1	i
Cc1ccc(NC(=O)CCC2COc3ccccc3O2)cc1C (centres undefined)	i
COc1ccc(-c2cc(C(F)F)n3ncc(C(=O)N4CCC(C)CC4)c3n2)cc1	7%
C=CCc1cc(OC)ccc1OCCCN1CCCC1	i
CC(=O)NC(C)c1ccc(Br)cc1 (centres undefined)	i
CCN(C(=O)CN1CCC2(CC1)OCCO2)c1nc2ccc(C)cc2s1	4%
Cc1ccc(NC(=O)COc2cc(C)cc3oc(=O)c(Cc4ccccc4)c(C)c23)cc1	i
CCNS(=O)(=O)c1ccc(CCC(=O)N2CCN(C(=O)OCC)CC2)cc1	i
COC(=O)c1cc(-c2ccccc2)sc1NC(=S)Nc1cn(C)nc1C	i
Cc1ccc(OCC(=O)N2CCN(c3ccccc3F)CC2)cc1C	i
c1ccc(CCCN2CCN(Cc3ccccn3)CC2)cc1	i
(list continues)
SMILES	Mtb H37Rv
CN(Cc1nc2ccccc2n1C)C(=O)c1ccc(Cl)cc1	i
CC(Oc1ccc(C(C)(C)C)cc1)C(=O)Nc1ncn[nH]1 (centres undefined)	i
CCCCc1ccc(NC(=O)C(=O)NCc2cccc(OC)c2)cc1	i
COc1ccc(-c2ccc(CCC(=O)O)n2NC(N)=O)cc1	i
O=C(CC12CC3CC(CC(C3)C1)C2)Nc1ccc2[nH]c(=O)[nH]c2c1	i
COC(=O)c1ccccc1NC(=O)CCc1ccc(S(=O)(=O)NC(C)c2ccccc2)cc1 (centres undefined)	i
O=C(O)CCC1COc2ccccc2O1 (centres undefined)	i
O=C(CSc1c(-c2ccccc2)c2cc(Cl)ccc2[nH]c1=O)NCc1ccco1	0%
Cc1ccc(-c2nn(-c3ccccc3)cc2C(=O)Nc2cccc(C(=O)O)c2)cc1C	i
CC(=O)Nc1nc2ccc(S(N)(=O)=O)cc2s1	i
COc1ccc(OC)c(NC(=O)c2c(NC(=O)CN3CCCC(C)C3)sc3c2CCC3)c1 (centres undefined)	i
COC(=O)Nc1ccc(S(=O)(=O)N2CCCC(C(=O)N3CCCCCC3)C2)cc1 (centres undefined)	i
COc1cc(C)c(C)cc1S(=O)(=O)N1CCN(c2c(C)cccc2C)CC1	i
COc1ccc(C(=O)Nc2ccc(C(=O)Nc3ccc(F)cc3)cc2)cc1	i
CCOc1cc(C2C3=C(CCCC3=O)NC3=C2C(=O)CCC3)ccc1OCc1cccc(C)c1	i
O=C(Nc1sc2c(c1C(=O)NCc1ccco1)CCCC2)c1sc2ccccc2c1Cl	i
N#Cc1ccccc1NC(=O)c1cccc2c(Br)cccc12	11%
CCN1C(=O)c2ccc(C(=O)Nc3ccccc3C(=O)OC)cc2C1=O	i
O=S(=O)(c1ccc(Cl)cc1)N1CCC(N2CCN(c3ccccc3)CC2)CC1	i
Cc1cc(C(F)(F)F)nc(Nc2nc3ccccc3o2)n1	1%
CCc1ccc(NC(=O)c2ccccc2NS(=O)(=O)c2cccc([N+](=O)[O-])c2)cc1	i
COc1ccc(-c2noc(CCCOc3ccccc3)n2)cc1	i
COC(=O)C1=COC(C)C2CN3CCc4c([nH]c5ccccc45)C3CC12 (centres undefined)	0%
CSCCC(C(=O)O)N1C(=O)c2ccc(C(=O)O)cc2C1=O (centres undefined)	i
O=C(NCCc1c[nH]c2ccc(Cl)cc12)c1cccs1	i
(list continues)
SMILES	Mtb H37Rv
COc1ccc(N(CC(N)=O)S(=O)(=O)c2ccc(C)cc2)cc1OC	i
Cc1cccc(C(=O)N2CC(C)OC(C)C2)c1[N+](=O)[O-] (centres undefined)	i
CCCCNC(=O)c1ccccc1NC(=O)c1ccccc1Br	4%
O=C(OCc1ccccn1)c1ccc(COc2ccc(Cl)cc2Cl)cc1	i
CSc1ccc(C(=S)N2CC(C)OC(C)C2)cc1 (centres undefined)	i
CCOc1ccc(N2CC(C(=O)NCc3ccco3)CC2=O)cc1 (centres undefined)	i
Cn1c(NCc2ccccc2)nc2c1c(=O)n(Cc1ccccc1F)c(=O)n2C	1%
COC(=O)c1ccc(CN(Cc2ccc(C(=O)OC)o2)C(C)(C)C)o1	i
COc1ccc(CNS(=O)(=O)c2ccc(OC)c3ccccc23)cc1	i
N#Cc1nc(-c2ccccc2F)oc1NCc1ccco1	i
O=c1c2ccccc2nc(/C=C/c2ccc(Cl)cc2)n1-c1ccc(Br)cc1	i
O=C(OC1CCc2ccccc2C1=O)c1ccccc1O (centres undefined)	12%

These rows are one share of the data; rates above refer to the full screens.
